# Calb FLC = C. albicans growth inhibition with fluconazole, primary screen, CaCi-2 strain, Alamar Blue fluorescence | C. albicans CaCi-2 (fluconazole-resistant clinical isolate) + fluconazole, 48 h | growth inhibition, % (concentration not given with the values) | 0.57% of 300,000 active | AID 1979, 2009;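 active = most replicates above 75%; inconclusive = exactly half above 75%; inactive = most below 75%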;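 note: all wells also contain fluconazole at 8 µg/ml as a sub-toxic cotreatment; 0% = median of DMSO wells and 100% = median of geldanamycin control wells; wells of about 8 µL received 7.5 nL stock; the first replicate is given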
# ALR inh = inhibitors of human ALR sulfhydryl oxidase, primary screen, biochemical, H2O2 detection, HRP-luminol luminescence, single point | 3.8% of 290,000 active | FAD-linked sulfhydryl oxidase ALR (Homo sapiens), P55789 | inhibition, % (test concentration not listed) | purified ALR, DTT oxidation;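 active = mean and each replicate at 75% or more; inconclusive = only one of the two met; inactive = neither met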;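 note: stock transfer was 7.5 nL into about 7.5 µL; 0% = neutral wells and 100% = wells with inactivated enzyme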
# Target sequence (P55789 whole entry, looked up): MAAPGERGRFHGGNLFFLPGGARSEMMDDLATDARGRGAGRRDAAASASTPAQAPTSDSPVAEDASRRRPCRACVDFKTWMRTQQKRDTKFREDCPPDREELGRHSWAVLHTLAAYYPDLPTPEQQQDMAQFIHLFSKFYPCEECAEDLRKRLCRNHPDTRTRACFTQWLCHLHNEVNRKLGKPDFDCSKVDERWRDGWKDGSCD
# AF4-AF9 inh = inhibitors of AF4 peptide binding to AF9, primary screen, biochemical, AlphaScreen, biotin-AF4 peptide, FLAG-AF9, single point; AID 651704, 2012; inhibition, % at 10 µM; Protein AF-9 (Homo sapiens), P42568; 0.47% of 350,000 active;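 active = every replicate reaching a set inhibition limit, whatever the replicate mean, cut at about 25% in these data; inconclusive = mean inhibition reaches that limit but some replicates miss it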;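 note: 0% = plate neutral control median and 100% = total signal loss; the record names both 10 and 1 µM as test concentration; the first replicate is given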
# Target sequence (P42568 whole entry, looked up): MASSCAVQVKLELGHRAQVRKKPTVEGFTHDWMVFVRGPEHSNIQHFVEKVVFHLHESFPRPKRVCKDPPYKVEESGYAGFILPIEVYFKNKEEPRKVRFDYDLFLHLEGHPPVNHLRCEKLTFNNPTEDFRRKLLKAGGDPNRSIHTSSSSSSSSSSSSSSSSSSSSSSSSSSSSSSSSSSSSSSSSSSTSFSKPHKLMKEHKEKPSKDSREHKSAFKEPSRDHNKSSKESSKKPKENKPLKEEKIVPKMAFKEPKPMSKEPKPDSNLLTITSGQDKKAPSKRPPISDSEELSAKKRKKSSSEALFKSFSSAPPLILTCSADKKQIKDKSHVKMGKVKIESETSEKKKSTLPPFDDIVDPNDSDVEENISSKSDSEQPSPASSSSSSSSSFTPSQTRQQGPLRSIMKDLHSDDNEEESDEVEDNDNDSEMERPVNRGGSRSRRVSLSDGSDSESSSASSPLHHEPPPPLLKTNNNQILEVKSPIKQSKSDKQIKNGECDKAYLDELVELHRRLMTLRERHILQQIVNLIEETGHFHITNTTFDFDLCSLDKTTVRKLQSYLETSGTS
# FGF22 binding = binders of human FGF22 protein, primary screen, FGF22 synaptogenesis inhibitor project, biophysical, thermal shift, single point. Fibroblast growth factor 22 (Homo sapiens), Q9HCT0. recombinant FGF22 thermal shift, SYPRO orange fluorescence; percent of sucrose octasulfate shift, DMSO zero. calls only at 9.99 µM. 1.5% of 340,000 active. AID 651658, 2012;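 active = melting point raised past a set limit in the mean and every replicate; inconclusive = no clear call; three in four hits are not shown here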
# T cruzi inh = inhibitors of intracellular T. cruzi growth, primary screen, luminescence, NIH3T3 host cells; T. cruzi beta-gal in NIH3T3, 90 h; inhibition, % (no concentration beside the values); 1.4% of 300,000 active; AID 1885, 2009;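 active = mean inhibition across valid replicates above about 55%, limit read from the data; inconclusive = mean below that limit but half or more replicates reach it; inactive = mean below it, under half of replicates reach it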;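 note: signal also drops with host cell toxicity which is not excluded here; 0% = plate median of DMSO wells and 100% = zero luminescence signal; higher percent means less beta-gal luminescence so fewer parasites; stock transfer was 50 nL into about 50 µL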
# Beta apoptosis = inhibitors of cytokine-induced beta cell apoptosis, primary screen, luminescence; AID 435005, 2010; 0.8% of 300,000 active; protection from apoptosis, % (concentration not given with the values); INS-1E cytokine-induced death, ATP luminescence, 48 h; percent of positive-control rescue, neutral wells zero;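 active = all replicates at 75% or more, or half of them and the mean; inconclusive = half reach 75% but not the mean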;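 note: 0% = cytokine-treated negative control wells and 100% = positive control rescue; higher means more ATP so stronger rescue from cytokine killing; wells of about 40 µL received 100 nL stock; the first replicate is given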
# Ecoli rRNA inh = reduced GFP signal of wild-type E. coli, primary screen, bacterial rRNA inhibitor project, GFP/RFP fluorescence, OD600, single point. E. coli WT GFP vs humanized-ribosome RFP mutants, 24 h; hits give low values; DMSO median 0, no signal -100. GFP signal change (wild-type ribosome), % (test concentration not listed). 1.6% of 350,000 active. AID 720706, 2013;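 active = significant combined selectivity score with lowered wild-type GFP, culture density cut under 30%, mutant RFP and density less affected; inactive = any of these conditions unmet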; note: one replicate is shown; some compounds called inactive have numbers as strong as hits
# RanGTP-Impb inh = inhibitors of RanGTP-importin-beta interaction, primary screen, biochemical, FRET, CFP-Ran, YFP-importin-beta, homogeneous; cell-free CFP-Ran/YFP-importin-beta FRET ratio; inhibition, % (concentration not given with the values); AID 2216, 2009; Ran GTPase (GTP-bound) - importin-beta complex; 1.1% of 300,000 active;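 active = most replicates above 15%; inconclusive = exactly half above 15%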;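 note: 0% = DMSO wells and 100% = Ran loaded with GDP instead of GTP; wells of about 40 µL received 100 nL stock; the first replicate is given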
# Ecoli rRNA inh OD600 = further read-out of Ecoli rRNA inh, marked with its call; OD600 change, %; measured here: OD600 growth;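 optical density of the mix in the first replicate; 0 = DMSO median and -100 = no signal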
# Ecoli rRNA inh RFP = also measured in Ecoli rRNA inh; calls as there; RFP signal change, %; measured here: RFP humanized mutant strains;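 first replicate; 0 = DMSO median and -100 = no signal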
# Active calls of the source: *; i = inactive; u = inconclusive; x = no result given.
structure	Calb FLC	ALR inh	AF4-AF9 inh	FGF22 binding	T cruzi inh	Beta apoptosis	Ecoli rRNA inh	Ecoli rRNA inh OD600	Ecoli rRNA inh RFP	RanGTP-Impb inh
Cc1ccc(CNC(=O)C(C)C2Sc3ccccc3NC2=O)cc1 (stereo not drawn)	-4	-6	6.5	i	-12	0	1	8	-6.3	-14
CC1(C)CC(=O)C(N=Nc2cc(Cl)c(Cl)c(Cl)c2)=C(O)C1	6	2	x	x	-7	-5	x	x	x	-3.8
CS(=O)(=O)N(Cc1ccco1)CC(O)Cn1cc(C=O)c2ccccc21 (stereo not drawn)	-17	-10	x	x	-3	-9	x	x	x	x
O=C(O)C=C1C2CC3CC(C2)CC1C3	6	-18	x	x	-14	-5	x	x	x	-1.9
CCCc1cc(=O)n2[nH]c(C)c(-c3ccccc3)c2n1	-3	28	x	x	-5	13	x	x	x	-1.7
CN1CCC(N2CCCC(C(=O)O)C2)CC1 (stereo not drawn)	-16	-3	x	x	-14	-3	x	x	x	2.2
O=C(COc1ccc(Cl)cc1)N1CCN(C(=O)c2cccs2)CC1	-4	x	-0.7	i	-1	-5	-20	-16	-1.3	1.2
COc1cccc(CC2(CO)CCCN(C(=O)c3cc[n+]([O-])cc3)C2)c1 (stereo not drawn)	-5	x	0.6	i	-21	-2	9	9	-0.4	3.3
COc1ccc(CN2CCC(n3nccc3NC(=O)c3ccc4c(c3)OCO4)CC2)cc1C	-3	3	17	i	13	-2	-4	-5	-0.1	-4.6
Cc1ccc(-n2c(=O)[nH]cc(C(=O)Nc3ccc4c(c3)OCCO4)c2=O)cc1	-10	-10	x	x	-5	-1	x	x	x	-0.5
OCc1cn(-c2ccccc2)nc1-c1ccco1	-24	18	x	x	-9	-5	x	x	x	-4.7
O=C(NCC1CCC(C(=O)O)CC1)OCc1ccccc1 (stereo not drawn)	-4	0	u	i	4	-1	-5	-6	-3.7	-9.4

# Some of these compounds in order of molar mass, lowest first:
structure	Calb FLC	ALR inh	AF4-AF9 inh	FGF22 binding	T cruzi inh	Beta apoptosis	Ecoli rRNA inh	Ecoli rRNA inh OD600	Ecoli rRNA inh RFP	RanGTP-Impb inh
O=C(O)C=C1C2CC3CC(C2)CC1C3	6	-18	x	x	-14	-5	x	x	x	-1.9
CCCc1cc(=O)n2[nH]c(C)c(-c3ccccc3)c2n1	-3	28	x	x	-5	13	x	x	x	-1.7
COc1ccc(CN2CCC(n3nccc3NC(=O)c3ccc4c(c3)OCO4)CC2)cc1C	-3	3	17	i	13	-2	-4	-5	-0.1	-4.6

# More structures
structure	Calb FLC	ALR inh	AF4-AF9 inh	FGF22 binding	T cruzi inh	Beta apoptosis	Ecoli rRNA inh	Ecoli rRNA inh OD600	Ecoli rRNA inh RFP	RanGTP-Impb inh
COc1ccccc1Sc1ccccc1/C=N/NC(N)=O	-7	-4	-0.5	i	-3	-5	3	-6	4.0	0.8
O=C(CN1CCN(S(=O)(=O)c2ccc(F)cc2)CC1)Nc1ccccc1F	-5	1	x	x	4	4	x	x	x	0.7
COc1ccc([N+](=O)[O-])cc1NC(=O)CSc1ncccn1	5	0	-1.3	i	-10	6	14	7	3.5	20*
C/C(=N\NC(=O)Cn1ccc(C(F)(F)F)n1)c1ccc(N2CCOCC2)cc1	6	31	u	i	-3	0	14	12	3.1	0.9
CCC1Nc2ncnc(N3CCN(c4ccccn4)CC3)c2N(Cc2ccc(Br)cc2)C1=O (stereo not drawn)	x	4	0.8	i	x	5	-16	-18	-7.1	x
CC1(C)CC(=O)C2=C(C1)OC(N)=C(C#N)[C@@]21C(=O)N(CC(N)=O)c2ccccc21	-5	-12	x	x	-16	-10	x	x	x	-2.8
Cc1ccc(S(=O)(=O)CCC(=O)Nc2cc(Cl)ccc2-n2cncn2)cc1	-9	x	0.3	i	1	-7	0	1	0.3	0.9
Cc1nnc(SCCn2c(N3CCCCC3)nc3c2c(=O)n(C)c(=O)n3C)s1	2	-4	x	x	2	-9	x	x	x	-2.9
Cc1cccc(/C=N/NC(=O)c2ccncc2)n1	5	-1	0.4	i	3	x	4	16	-1.8	-1.9
Cc1ccc(S(=O)(=O)N(C)C)cc1NC(=O)CSc1ncc(C(F)(F)F)cc1Cl	-9	-2	-0.4	i	24	1	13	11	-9.3	-0.2
CC(=O)CSc1ncnc2sc3c(c12)CCC3	14	94*	-3.1	i	-6	-6	-10	-11	0.0	1.7
Cc1ccc(NC(=O)c2cccc(S(=O)(=O)N3CCN(c4ccccc4)CC3)c2)nc1	-16	x	4.8	i	11	-5	-4	-7	-1.4	1.1
CCc1ccc(NC(=O)c2cc(S(=O)(=O)N3CCCC3)c[nH]2)cc1	3	1	x	x	-1	-9	x	x	x	u
CC(C)(C)NC(=O)NC(=O)COC(=O)c1cccc(OC(F)F)c1	-19	-5	1.2	i	-11	-6	-11	-17	2.8	-0.9
Cc1cc(C)c(S(=O)(=O)Cc2ccccc2)c(OC(C)C)n1	-1	0	-0.7	i	-8	-2	-19	-16	-21	-4.6
COC(=O)C1=C(C)N(c2ccc(OC)cc2)C(=O)/C1=C\c1cccs1	-4	57	x	x	7	-7	x	x	x	-0.8
O=[N+]([O-])c1ccc2ccn(C3OCC(O)C(O)C3O)c2c1 (stereo not drawn)	5	-2	-0.8	i	x	1	23	6	4.7	x

# By substructure, those above with a halogen
structure	Calb FLC	ALR inh	AF4-AF9 inh	FGF22 binding	T cruzi inh	Beta apoptosis	Ecoli rRNA inh	Ecoli rRNA inh OD600	Ecoli rRNA inh RFP	RanGTP-Impb inh
CC1(C)CC(=O)C(N=Nc2cc(Cl)c(Cl)c(Cl)c2)=C(O)C1	6	2	x	x	-7	-5	x	x	x	-3.8
O=C(COc1ccc(Cl)cc1)N1CCN(C(=O)c2cccs2)CC1	-4	x	-0.7	i	-1	-5	-20	-16	-1.3	1.2
O=C(CN1CCN(S(=O)(=O)c2ccc(F)cc2)CC1)Nc1ccccc1F	-5	1	x	x	4	4	x	x	x	0.7
C/C(=N\NC(=O)Cn1ccc(C(F)(F)F)n1)c1ccc(N2CCOCC2)cc1	6	31	u	i	-3	0	14	12	3.1	0.9
CCC1Nc2ncnc(N3CCN(c4ccccn4)CC3)c2N(Cc2ccc(Br)cc2)C1=O (stereo not drawn)	x	4	0.8	i	x	5	-16	-18	-7.1	x
Cc1ccc(S(=O)(=O)CCC(=O)Nc2cc(Cl)ccc2-n2cncn2)cc1	-9	x	0.3	i	1	-7	0	1	0.3	0.9
Cc1ccc(S(=O)(=O)N(C)C)cc1NC(=O)CSc1ncc(C(F)(F)F)cc1Cl	-9	-2	-0.4	i	24	1	13	11	-9.3	-0.2
CC(C)(C)NC(=O)NC(=O)COC(=O)c1cccc(OC(F)F)c1	-19	-5	1.2	i	-11	-6	-11	-17	2.8	-0.9

# Only part of the results is shown; the hit share may differ from the screen's.
